Marburg entry inh: inhibitors of Marburg virus binding or cell entry | Marburg virus pseudotyped entry inhibition, cell reporter; control for the full effect not named in the record; about a third of the inactives were read at about 46 µM | hit rate 1.8% among 300,000 | Potency, µM (highest dose often 37.8 µM), without a hit: at the highest dose activity change, negative = inhibition, hits mostly inhibitors; active = well fitted inhibition curve with a large enough effect; inconclusive = small, poorly fitted or top-dose-only effect, or effect the other way; inactive = flat fitted curve, though single readings scatter; tested in HEK293 cells; about a fifth of its hits are not listed in these tables; also: % is scaled to controls: 0 for no effect and ±100 for the full control effect; luciferase read-out
SARS PLP yeast: blocks SARS-CoV papain-like protease in a yeast assay. S. cerevisiae expressing SARS-CoV PLpro, growth rescue; control for the full effect not named in the record. Potency, µM (doses to about 32.9 µM), without a hit: at the highest dose activity, positive = growth rescue. hit rate 0.19% among 330,000; active means well fitted rising curve with a large enough effect; inconclusive means small, poorly fitted or top-dose-only effect; inactive means no such curve, though single readings can be large or run the other way; also: 0% is about no effect; nearly all actives have a fitted effect of over 55% in size; growth read by luminescence after 48 h
NS1 function inh: inhibitors of influenza NS1 protein function. AID 2326. hit rate 0.4% among 270,000. Potency, µM (doses to about 46.1 µM), inactives show at the highest dose activity, positive = more growth. S. cerevisiae slowed by influenza A NS1, growth recovery by OD600; active means well fitted rising curve with a large enough effect; inconclusive means small, poorly fitted or top-dose-only effect; inactive means no such curve, though single readings can be large or run the other way; also: nearly all actives have a fitted effect of over 50% in size
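Recovery from NS1-induced slow growth read by OD600 in budding yeast switched to galactose assay medium (pH 6.0, -URA) at 1:100 dilution. Compound 23 nl per well; the matching strain lacking NS1 serves as control.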
LASV entry inh: Lassa virus entry inhibition; Lassa virus pseudotype entry inhibition, cell reporter; control for the full effect not named in the record; Potency, µM (top dose mostly 37.9 µM), without a hit: top-dose activity change, negative = inhibition, usual class: inhibitors; hit rate 1.2% among 300,000; active means well fitted inhibition curve with a large enough effect; inconclusive means small, poorly fitted or top-dose-only effect, or effect the other way; inactive means flat fitted curve, though single readings scatter; tested in HEK293 cells; also: % is scaled to controls: 0 for no effect and ±100 for the full control effect; nearly all actives have a fitted effect of over 50% in size; luciferase read-out
2A StopGo: lowers the luciferase signal of an FMDV 2A StopGo reporter; human cells with a luciferase reporter of 2A StopGo recoding; control for the full effect not named in the record; Potency, µM (titrated, usually from 57.9 µM), without a hit: at the top dose signal change, negative = less light; hit rate 1.2% among 410,000; active = well fitted falling curve with a large enough effect; inconclusive = small, poorly fitted or top-dose-only effect; inactive = no such curve, though single readings can be large or run the other way; tested in HEK293T cells; also: % is scaled to controls: 0 for no effect and ±100 for the full control effect; nearly all actives have a fitted effect of over 45% in size; luciferase light after 4 h
RE007 growth inh: less growth of the S. pombe RE007 Vpr strain; S. pombe RE007 Vpr strain, BacTiter-Glo ATP luminescence, 24 h; control for the full effect not named in the record; Potency, µM (highest dose often 92.2 µM), without a hit: at the top dose activity change, negative = less growth; hit rate 0.21% among 360,000; AID 651644; active = well fitted falling curve with a large enough effect; inconclusive = small, poorly fitted or top-dose-only effect; inactive = no such curve, though single readings can be large or run the other way;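 also: % is scaled to controls: 0 for no effect and ±100 for the full control effect; nearly all actives have a fitted effect of over 50% in size; the assay follows cell death caused by Vpr and the record does not say whether a fall means rescue or toxicity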
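Fission yeast strain RE007, carrying one chromosomally integrated HIV-1 vpr copy, was seeded at OD 0.01 in PMG+AL medium with 23 nL pinned compound. After 24 h at 30 °C and 99% humidity, viability was read by BacTiter-Glo luminescence.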
Cruzain Triton: blocks cruzain activity in presence of Triton detergent; purified cruzain, Z-FR-AMC fluorescence, 0.01% Triton; hit rate 0.43% among 200,000; Potency, µM, for the others: max response, negative = inhibition, hits mostly inhibitors;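 also: plate controls were neutral wells for no effect and buffer without enzyme for full effect; nearly all actives have a fitted effect of over 40% in size; top concentration of the series not given in the record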
Target sequence (P25779 123-467 limits assumed): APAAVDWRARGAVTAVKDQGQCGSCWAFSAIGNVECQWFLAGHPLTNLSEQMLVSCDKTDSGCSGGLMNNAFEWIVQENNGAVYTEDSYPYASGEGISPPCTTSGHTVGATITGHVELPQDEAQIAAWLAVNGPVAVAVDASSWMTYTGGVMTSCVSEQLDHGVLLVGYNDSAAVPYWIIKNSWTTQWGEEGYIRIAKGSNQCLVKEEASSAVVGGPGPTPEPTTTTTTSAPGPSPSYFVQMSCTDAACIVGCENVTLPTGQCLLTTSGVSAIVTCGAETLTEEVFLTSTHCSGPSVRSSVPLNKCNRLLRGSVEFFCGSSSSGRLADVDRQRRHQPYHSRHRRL
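Steps: dispense cruzain (1.5 nM final) in acetate buffer pH 5.5 with DTT and 0.01% Triton X-100; pin-transfer compounds; incubate 15 min RT; add Z-FR-AMC (2 uM final); read fluorescence every 30 s, using the 60 s intensity change.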
Cruzain inh noDet: inhibitors of Trypanosoma cruzi cruzain without detergent. hit rate 2.3% among 200,000. Potency, µM, for inactives: max response, negative = inhibition, most hits filed as inhibitors. AID 1476. purified cruzain, Z-FR-AMC fluorescence, no detergent;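 also: plate controls were enzyme without inhibitor for no effect and buffer without enzyme for full effect; nearly all actives have a fitted effect of over 40% in size; top concentration of the series not given in the record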
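Purified cruzain at 1.5 nM, pre-incubated 15 min with compound at room temperature in 100 mM sodium acetate pH 5.5, 5 mM DTT, 0.00005% Triton X-100. Reaction started with 2 uM Z-FR-AMC; AMC fluorescence increase over 60 s gives rate.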
Active calls of the source: *; ? = inconclusive; · = no result given; & = joins results of further samples; [ ] = dose if it differs, or a comment. Unless noted, calls follow the shape of the dose curve; as a rule, active = well fitted curve in the direction sought with a large enough effect; inconclusive = small, poorly fitted or top-dose-only effect, or another doubt; inactive = no such curve, though single readings can be large; an effect the other way counts as inactive or inconclusive. Potency is read from the fitted curve at half-maximal effect.

SMILES	Marburg entry inh	SARS PLP yeast	NS1 function inh	LASV entry inh	2A StopGo	RE007 growth inh	Cruzain Triton	Cruzain inh noDet
CC(NC(=O)Cc1ccc(NC(=O)N2CCCCc3ccccc32)cc1)c1ccccc1 (configuration not stated)	·	·	·	?	-5.4%	·	-4.9%	-3.6%
COc1ccc(C(=O)NC2CCN(C(=S)NCCc3ccccc3)CC2)cc1	0.0%[46.1 µM]	0.1%	6.5%	?	-5.5%	13.2%	·	·
CC(NC(=O)C1CCN(c2nnc(N3CCCC3=O)s2)CC1)c1ccccc1 (configuration not stated)	·	1.2%	19.9%	·	0.0%	-16.1%	·	·
O=C(NCc1ccc(F)cc1)C1CCCN1C(=O)Nc1ccccc1 (configuration not stated)	·	0.1%	-3.1%	·	7.1%	-2.5%	·	·
CCc1nn(CCCC(=O)Nc2ccc(C)cc2C)c(=O)c2cc3occc3n12	·	4.6%	14.2%	·	-4.8%	-1.3%	·	·
CCOc1ccc(-n2c(SCC(=O)N3CCCC3)nc3c([nH]c4ccccc43)c2=O)cc1	·	·	·	20.0%[46.1 µM]	-22.0%	·	-0.4%	-2.0%
c1cncc(-c2nc(N3CCOCC3)c3c4c(sc3n2)CCC4)c1	?	-0.3%	·	1.5%	-26.3%	-2.0%	·	·
Cc1cc(S(=O)(=O)N2CCOCC2)ccc1OCC(=O)Nc1cccc(F)c1	-15.8%[46.1 µM]	3.3%	2.7%	-16.9%	-18.6%	-15.0%	·	·
CCOc1ccc(CC(=O)Nc2ccc3c(c2)N(C)C(=O)c2ccccc2S3)cc1OCC	·	·	·	?	-24.4%	·	-2.5%	?
COc1ccccc1/C=N/n1c(N)c(C(=O)NC2CCCCC2)c2nc3ccccc3nc21	-0.8%&-0.8%	-0.7%	-4.2%	-1.3%	34.7%[activator]	-2.7%	6.8%	-6.4%
COc1cc(/C=N/NC(=O)CCN2CCN(C)CC2)cc2c1OCO2	-1.4%	0.7%	-7.2%	4.0%	-7.3%	0.8%	·	·
N#Cc1cc([N+](=O)[O-])ccc1N1CCN(c2ccccc2O)CC1	3.4%	-10.1%	·	-24.6%	-26.5%	-13.6%	·	·
Cc1[nH]nc(-c2ccc(O)cc2O)c1-c1nc2ccccc2s1	?	1.5%	·	?	?	-1.7%	·	·
O=C(Cn1cnc2c(nnn2Cc2ccc(F)cc2)c1=O)NCc1ccc2c(c1)OCO2	3.3%	20.4%	-6.3%	-1.3%	-16.8%	-22.1%	-1.2%	-6.1%
Cc1ccc2c(c1)C(c1ccc(F)cc1)N(C(=O)c1ccc(S(=O)(=O)N3CCCCC3)cc1)CC(=O)N2 (configuration not stated)	?	·	·	-22.1%[46.1 µM]	-14.2%	·	-4.1%	-6.0%
Cc1ccc(O)c(NC(=O)c2ccc(Br)c(S(=O)(=O)N3CCCCC3)c2)c1	·	·	·	?	0.0%	·	-6.9%	10.5%
COc1ccc(CCNC(=O)c2cc3cccc4c3n2CC(C)S4)c(OC)c1OC (configuration not stated)	·	·	·	-24.8%[46.1 µM]	-13.9%	·	-10.5%	25.4%
CCOC(=O)C1(CCOc2ccccc2)CCN(CC=C(C)C)CC1	?	3.7%	10.3%	-18.0%[46.1 µM]	6.1%	-14.3%	·	·
CC(C)Oc1ccc(C(=O)Nc2ccc(NC(=O)c3ccco3)c(Cl)c2)cc1	15.8%	-0.4%	-13.2%	8.3%	-18.9%	-6.3%	-0.7%	11.7%
CCc1cccc(NS(=O)(=O)c2c(C)nc3sc(CC)nn3c2=O)c1	-5.0%[46.1 µM]	-0.3%	1.9%	-2.4%[46.1 µM]	0.0%&-10.7%	5.7%	-1.9%	-18.8%
N#Cc1ccc[n+](CC(=O)c2ccc(NC(=O)c3ccccc3)cc2)c1	·	-0.1%	10.1%	·	32.8%[activator]	-6.6%	·	·
CCCn1c(SCC(=O)OCc2ccccc2)nc2c1c(=O)n(C)c(=O)n2C	-2.3%	-1.6%	-32.7%	1.6%	12.6%	5.0%	-1.7%	-2.1%
Clc1ccc(CNc2ncnc3[nH]ncc23)cc1Cl	3.98µM*	·	·	7.08µM*	-20.9%	0.7%	·	·
CCOC(=O)C1CCN(c2nc(N)c3c(N)nc(SCC(=O)O)cc3c2C#N)CC1	·	-0.4%	4.8%	·	-2.4%	6.4%	·	·
O=C(Cn1nnc2c(cnn2-c2ccc(F)cc2)c1=O)c1ccccc1F	26.6%	-4.8%	8.2%	17.6%	22.2%	0.7%	-3.0%	11.2%
CC(=O)C1=C(C)NC2=C(C(=O)CC(C)(C)C2)C1C (configuration not stated)	6.4%[46.1 µM]	-2.2%	·	16.8%[46.1 µM]	0.0%	13.8%	·	·
COc1cc(OC)c(C2SCCS2)c(OC)c1	13.3%	2.9%	-19.5%	0.0%	-13.8%	-11.4%	-1.5%	-7.1%
Clc1ccc(N2CCN(c3cnc4ccccc4n3)CC2)cc1	-15.4%	3.9%	11.0%	1.4%	-16.2%	-6.5%	-1.6%	3.5%
CCOC(=O)c1cnc2c(OC)cccc2c1NCc1cccnc1	·	6.2%	2.7%	·	?	-3.5%	·	·
CCCOC(=S)Nc1ccccc1	21.2%	20.0%	-1.3%	0.6%	21.9%	-8.5%	-0.1%	2.7%
Cc1ccc(C(NC(=O)NC(C)c2ccccc2)C(Cl)(Cl)Cl)cc1F (configuration not stated)	?	-28.4%	8.9%	?	?	-3.6%	-2.5%	2.1%
CCOC(=O)N1CCN(C(=O)Nc2ccc3nccnc3c2)CC1	4.0%	-4.8%	3.1%	0.1%	·	-0.3%	-4.4%	-9.2%
C=CCNC(=S)NNC(=O)COc1c(Cl)cc(Cl)cc1Cl	7.8%	-34.6%	-25.7%	2.5%	-24.9%	31.6%	0.1%	7.9%
O=C(O)c1nn(CC(=O)N2CCCCCC2)c(=O)c2ccccc12	15.8%	4.5%	·	19.6%	-4.5%	23.4%	·	·
COc1ccc(-c2nnc(NC(=O)C3CCCO3)s2)cc1 (configuration not stated)	-3.4%	-4.9%	-14.2%	-15.7%	45.2%[activator]	-24.2%	0.4%	-7.1%
O=C(NN1C(=O)NC2(CCCCC2)C1=O)c1ccc(-c2ccc([N+](=O)[O-])cc2)o1	·	-8.6%	21.0%	·	-36.2%	-19.5%	·	·
COc1cccc(C2C=C(c3ccc(OC)cc3OC)Nc3nnnn32)c1 (configuration not stated)	?	-3.3%	6.5%	?	?	-14.4%	-3.9%	-20.9%
O=C(OCc1nnc(-c2ccccc2)o1)c1cccc(-n2cnnn2)c1	-8.1%	0.6%	·	16.4%	-6.8%	13.9%	·	·
O=C(CCNC(=O)c1ccc(Cl)cc1)NCc1ccccc1Cl	-17.0%	5.6%	·	?	-0.6%	6.7%	·	·
Cc1cc2n(n1)SC(Nc1cccc3ccccc13)N2 (configuration not stated)	0.1%&0.1%	-8.7%	0.1%	14.4%	0.0%	3.4%	-5.5%	9.6%
CC(=O)Nc1ccc(NC(=O)CSC2=NCCS2)cc1	21.6%	-1.5%	-3.1%	2.7%	-9.6%	46.3%	4.5%	1.3%
CCOC(=O)/C=c1\sc2n(c1=O)CCN=2	2.0%	?	-12.7%	4.9%	7.6%	-11.2%	-1.1%	-13.4%
Cc1ccc2nc(-c3ccc(NC(=O)c4ccccc4S(C)(=O)=O)cc3)sc2c1	·	·	·	14.8%[46.1 µM]	23.6%	·	-4.3%	?
Cc1ccc(NC(=O)N2CCSc3ccccc32)cc1	·	-3.1%	-3.7%	·	24.0%	-16.3%	·	·
COc1ccc(-n2nc(C(=O)NCCc3ccc(Cl)cc3)c3c4ccccc4n(C)c3c2=O)cc1	9.2%[46.1 µM]	·	·	21.7%[46.1 µM]	-26.4%	·	-2.1%	-0.5%
COc1ccc(CNC(=O)CSCc2c(F)cccc2Cl)cc1	·	-1.0%	-6.3%	·	18.9%	2.0%	·	·
Cc1cc(=O)[nH]c(-c2cccs2)n1	·	0.8%	0.0%	·	-3.4%	-10.9%	·	·
O=S(=O)(NCCc1ccccn1)c1ccc(OC(F)(F)F)cc1	·	1.1%	-3.1%	·	14.1%	-2.0%	·	·
C=CCNC(=O)CN(c1cc(Cl)ccc1OC)S(=O)(=O)c1ccc(C)c([N+](=O)[O-])c1	-0.4%[46.1 µM]	0.3%	1.9%	-5.5%	24.7%	-2.0%	·	·
CCOC(=O)C1CCN(C(=O)c2ccc3nc(-c4ccc(OC)cc4)c(-c4ccc(OC)cc4)nc3c2)CC1	·	-3.3%	17.3%	·	18.2%	6.1%	·	·
O=C(O)/C=C/c1ccc(S(=O)(=O)Nc2cccnc2)cc1	?	0.3%	15.5%	-24.9%	-12.8%	1.6%	·	·
Cc1ccc(S(=O)(=O)/C=C2\NC(=O)CS2)cc1	9.2%	7.5%	?	-6.3%	-19.6%	-1.7%	4.6%	0.2%
O=C1CCCC/C1=C\Nc1ccc(Cl)cn1	12.2%	?	-44.5%	?	58.9%[activator]	-23.9%	-5.0%	-0.3%
CC(=O)c1ccc(NC(=O)C[n+]2ccc(N(C)C)cc2)cc1	?	-0.8%	-7.8%	26.5%	-19.1%	-19.5%	·	·
Cc1cccc(-c2noc(C3CC(=O)N(c4ccc5c(c4)OCCO5)C3)n2)c1 (configuration not stated)	·	·	·	11.2%[46.1 µM]	-8.2%	·	-9.0%	13.7%
Cc1ccc(S(=O)(=O)N2C(=O)CCC2C(=O)O/N=C(\N)c2cccc([N+](=O)[O-])c2)cc1 (configuration not stated)	·	-8.4%	-17.9%	·	-11.2%	1.3%	·	·
Cn1nccc1C(=O)NCc1ccc2c(c1)CCN2C(=O)c1ccc(Cl)cc1	·	·	·	?	1.4%	·	-0.2%	14.4%
O=C(O)C(CCc1ccccc1)N1C(=O)c2ccccc2C1=O (configuration not stated)	?	·	·	8.5%	-1.6%	?	·	·
Cc1cccc(N2CCN(C(=O)Cn3ncc4c3-c3cc(C)ccc3OC4)CC2C)c1 (configuration not stated)	?	·	·	·	-14.1%	·	-8.4%	?
Cc1cccc(C(=O)OCc2cc(=O)n3nc(C4CCCCC4)sc3n2)c1	·	·	·	0.8%[46.1 µM]	-22.7%	·	-1.4%	1.1%

Screening data deposited in PubChem BioAssay by National Center for Advancing Translational Sciences (NCATS).
